PrP UTR inh = inhibition of PrP 5' UTR reporter expression. cell-based PrP 5' UTR mRNA reporter, plate reader. inhibition, % (concentration not given with the values). 340,000 compounds, 0.35% hits. AID 488862, 2010;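 active = every replicate at 50% or more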;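 note: 0 = median of the neutral control wells; tested in H4 reporter cells; numbers are from one replicate; inactives centre near -14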
Autofluor counter = compound fluorescence in toxin protease inhibitor counterscreen; compound autofluorescence counterscreen, microsphere flow cytometry; hits give high values; fluorescence intensity (concentration not given with the values); 360,000 compounds, 3.1% hits;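 active = at least 3 SD above the mean of all compounds, about 16000 in these data; inconclusive = too few beads counted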;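 note: 100 nL of 1 mM stock went into each well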
Sa RN4220 lethal = growth inhibition of S. aureus RN4220, primary screen, OD600. 16 h. inhibition, % (test concentration not listed). 330,000 compounds, 0.33% hits. AID 1259311, 2017;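 active = z-score of -3 or lower and OD600 up to 0.18 on both plates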;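 note: plate controls were untreated cells for no effect and reference antibiotic for full effect; stock transfer was 100 nL into about 80 µL; one replicate is shown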
BJeLR lethal = MLPCN primary cell-based screen for lethality selective to Ras in HRASV12 cells | BJeLR (HRASV12) viability, CellTiter-Glo ATP luminescence, 48 h; reference of the scale not given here | inhibition, % (no concentration beside the values) | 300,000 compounds, 0.17% hits | AID 1554, 2009;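 active = replicate mean above 50%; inconclusive = above 50% but judged a plate artefact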;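 note: 50 nL library stock added to about 25 µL; numbers are from one replicate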
ugtP null kill = growth inhibition of ugtP-null S. aureus, primary screen, RN4220 ugtP deletion, OD600; 16 h; some inactives read as strong as hits; growth inhibition, % (no concentration beside the values); 330,000 compounds, 0.54% hits;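 active = z-score under -3 and OD600 up to 0.15 on both plates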;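 note: plate controls were untreated wells for no effect and antibiotic for full effect; wells of about 80 µL received 100 nL stock; the first replicate is given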
Mtb hypoxia rep = PubChem AID 1159583. fluorescence inhibition, % (test concentration not listed). M. tuberculosis hypoxia-regulated fluorescent reporter, fluorescence. 300,000 compounds, 0.1% hits;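 active = 35 to 45% if threefold the growth effect, above 45% if 1.5-fold the growth effect; inactive = the rest, general growth blockers included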;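 note: wells of about 50 µL received 100 nL stock; 0% = vehicle wells and 100% = reference inhibitor wells; whole bacteria with a GFP reporter of the hypoxia response; strong numbers were not always called active; many hits fall short of the cut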
Mtb hypoxia rep growth = further read-out of Mtb hypoxia rep, marked with its call; growth inhibition, %; measured here: M. tuberculosis growth (absorbance);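 0% = vehicle and 100% = reference antibiotic; read after six days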
Numbers without * were called inactive; ? = inconclusive; nt = not tested or not shown. Hits appear at their usual frequency. Share with any hit: about 4%.

Start of the listing, in advance, 2 compounds:
Codes: A = PrP UTR inh; B = Autofluor counter; C = Sa RN4220 lethal; D = BJeLR lethal; E = ugtP null kill; F = Mtb hypoxia rep; G = Mtb hypoxia rep growth
O=S(=O)(Nc1cccnc1)c1ccc(Br)c2ccccc12
  A: -16; B: 4233; C: 10; D: -12; E: -19; F: -1; G: 2

O=C(NN=C/C=C/c1ccc2c(c1)OCO2)c1ccc(F)cc1
  A: nt; B: nt; C: 4.1; D: nt; E: -1; F: 10; G: 2

The list itself, previewed entries included:
Codes: A = PrP UTR inh; B = Autofluor counter; C = Sa RN4220 lethal; D = BJeLR lethal; E = ugtP null kill; F = Mtb hypoxia rep; G = Mtb hypoxia rep growth
O=S(=O)(Nc1cccnc1)c1ccc(Br)c2ccccc12
  A: -16; B: 4233; C: 10; D: -12; E: -19; F: -1; G: 2

O=C(NN=C/C=C/c1ccc2c(c1)OCO2)c1ccc(F)cc1
  A: nt; B: nt; C: 4.1; D: nt; E: -1; F: 10; G: 2

Cc1ccc(N=C2NC(=O)CS2)cc1
  A: -12; B: 3445; C: 4.6; D: -1; E: 11; F: 4; G: 7

c1ccc(CCn2nnnc2C(c2cccs2)N2CCOCC2)cc1 (configuration not stated)
  A: -10; B: 3434; C: 2.5; D: 5; E: 4; F: nt; G: nt

COc1cccc(NC(=O)COC(=O)c2ccccc2SCC(=O)N2CCCC2)c1
  A: -14; B: 3950; C: 0.9; D: 3; E: 1; F: 1; G: -3

Cc1cc(OCCOc2cccc3cccnc23)cc(C)c1Cl
  A: -31; B: 5339; C: 0.3; D: -3; E: -4; F: nt; G: nt

Oc1ccc(C[C@H]2CNCCN2CC2(c3ccccc3)CC2)cc1
  A: 0; B: 3040; C: nt; D: 9; E: nt; F: nt; G: nt

Cc1nc2sc(C(c3ccccc3)N3CCN(C)CC3)c(O)n2n1 (configuration not stated)
  A: -6; B: 4344; C: -2.9; D: -4; E: 1; F: 7; G: 9

COc1ccc(Cl)cc1C(=O)N1CCN(c2ccccn2)CC1
  A: -5; B: 3021; C: 3.9; D: -5; E: 1; F: 6; G: 11

CC(Sc1nnnn1C)C(=O)Nc1ccccc1-c1ccccc1 (configuration not stated)
  A: -8; B: 9202; C: 4.0; D: 0; E: 7; F: 7; G: -2

Cc1ccccc1N1CCN(C(=S)c2ccc([N+](=O)[O-])cc2)CC1
  A: -11; B: 1911; C: 2.3; D: -11; E: -6; F: 3; G: 6

O=C(CNS(=O)(=O)c1ccccc1)N1CCN(C(=O)c2ccco2)CC1
  A: -18; B: 5786; C: 1.8; D: 1; E: 7; F: 5; G: -1

COCCCNS(=O)(=O)c1cccc(S(=O)(=O)c2cccc(S(=O)(=O)NCCCOC)c2)c1
  A: 0; B: 3068; C: 2.1; D: -2; E: 12; F: 9; G: 7

O=C(NC(=S)Nc1ccc(NC(=O)c2ccco2)cc1)c1ccccc1
  A: -21; B: 2319; C: 2.5; D: -1; E: 15; F: 3; G: -8

N#Cc1c(SCC(=O)N2CCOCC2)nsc1SCC(=O)N1CCOCC1
  A: -12; B: 4729; C: 0.0; D: 1; E: 0; F: nt; G: nt

O=C(Nc1cccc(C(F)(F)F)c1)C1CCN(S(=O)(=O)c2cccnc2)CC1
  A: -11; B: 6007; C: 2.3; D: 2; E: 1; F: 4; G: 7

CCOC(=O)c1cn(Cc2ccc(C)cc2)nn1
  A: 0; B: 7691; C: -1.5; D: 2; E: 2; F: nt; G: nt

CCCCOc1ccc(-c2n[nH]c(=S)n2Cc2ccccc2)cc1
  A: -18; B: 3674; C: 1.2; D: -3; E: 9; F: 9; G: 2

COc1ccc2c(c1)c1nc(SCC(C)C)n(CCO)c(=O)c1n2C
  A: -3; B: 5946; C: 2.1; D: 4; E: 9; F: 7; G: 10

COC(=O)c1cn(C(=O)c2ccccc2)c2ccccc12
  A: -17; B: 2168; C: 5.0; D: 2; E: 5; F: 7; G: 8

Cc1cc2cc(CNC(=O)c3ccc(S(=O)(=O)N4CCCC4)cc3)ccc2n1C
  A: -11; B: 1376; C: -11; D: 0; E: -10; F: -2; G: 13

CN(C)CC/C=C1\c2cc(Cl)ccc2Sc2cc(F)c(F)cc21
  A: -11; B: 6393; C: -4.3; D: -1; E: -20; F: nt; G: nt

CCOc1ccc(N(CC(=O)NC2CCCC2)C(=O)CCC(=O)Nc2nccs2)cc1
  A: -8; B: 5154; C: -1.3; D: -1; E: 6; F: 14; G: 9

O=C(NNC(=O)c1ccncc1)Nc1cc(Cl)ccc1Cl
  A: -31; B: 3596; C: 2.4; D: nt; E: 2; F: 17; G: 17

COc1ccc(CNCc2ccccc2[N+](=O)[O-])cc1OC
  A: -6; B: nt; C: 3.5; D: -2; E: 5; F: 3; G: -6

CCOc1ccc(NC(=O)CN(C)C(=O)C2CC2C)cc1OCC (configuration not stated)
  A: -20; B: ?; C: 1.1; D: nt; E: 4; F: 7; G: -1

O=C1C=C(c2ccc(F)cc2OCc2ccccc2)CC(c2ccc(F)cc2)C1 (configuration not stated)
  A: nt; B: nt; C: -3.3; D: nt; E: 5; F: 3; G: 7

CCn1nc(C)c(NC(=O)c2cc(Br)ccc2Cl)c1C
  A: -41; B: 19900*; C: 3.8; D: -2; E: 9; F: 1; G: 4

c1ccc2c(c1)ncn2CCC1CCCCC1
  A: -3; B: 5209; C: 14; D: 5; E: -22; F: 9; G: 26

Cc1ccc(C2CC2c2n[nH]c(=S)n2-c2cccc(Cl)c2)cc1 (configuration not stated)
  A: -19; B: 2484; C: 5.4; D: -8; E: 12; F: nt; G: nt

COc1ccc(CCN(C)C(=O)CN2C(=O)c3ccccc3S2(=O)=O)cc1OC
  A: -21; B: 3103; C: 1.9; D: 0; E: -1; F: nt; G: nt

CCOC(=O)N1CCC(NC(=O)CS(=O)(=O)Cc2nc(-c3cccc(OC)c3)oc2C)CC1
  A: -7; B: nt; C: 3.6; D: -1; E: 8; F: 1; G: 2

COc1c(NC(C)=O)c2c(c([N+](=O)[O-])c1OC)C(=O)OC2
  A: -19; B: 3586; C: 4.8; D: nt; E: -7; F: 1; G: 11

O=[N+]([O-])c1ccc(COc2cccc(CNc3ccc(Br)cc3)c2)cc1
  A: -1; B: 2566; C: -2.3; D: 0; E: -16; F: 17; G: -2

COC(=O)C1=C(C)N(Cc2ccccc2)C(=NCCc2cccnc2)N[C@H]1c1ccccc1
  A: -4; B: 4133; C: nt; D: 3; E: nt; F: nt; G: nt

COC(=O)C1(C)NCCc2c1[nH]c1ccccc21 (configuration not stated)
  A: -17; B: 5246; C: 1.1; D: -10; E: -7; F: nt; G: nt

One compound at a time, from the list above. Screens in order: PrP UTR inh | Autofluor counter | Sa RN4220 lethal | BJeLR lethal | ugtP null kill | Mtb hypoxia rep | Mtb hypoxia rep growth
CN(C)CC/C=C1\c2cc(Cl)ccc2Sc2cc(F)c(F)cc21 in the list: -11 | 6393 | -4.3 | -1 | -20 | nt | nt
COc1ccc(CCN(C)C(=O)CN2C(=O)c3ccccc3S2(=O)=O)cc1OC in the list: -21 | 3103 | 1.9 | 0 | -1 | nt | nt
COc1ccc(CNCc2ccccc2[N+](=O)[O-])cc1OC in the list: -6 | nt | 3.5 | -2 | 5 | 3 | -6
COC(=O)C1=C(C)N(Cc2ccccc2)C(=NCCc2cccnc2)N[C@H]1c1ccccc1 in the list: -4 | 4133 | nt | 3 | nt | nt | nt
O=C(NNC(=O)c1ccncc1)Nc1cc(Cl)ccc1Cl in the list: -31 | 3596 | 2.4 | nt | 2 | 17 | 17

Source: PubChem (several laboratories)
